# StopGo reporter – lowers the luciferase signal of an FMDV 2A StopGo reporter | human cells with a luciferase reporter of 2A StopGo recoding; control for the full effect not named in the record | Potency, µM (series often up to 57.9 µM), without a hit: at the top dose signal change, negative = less light | hit rate 1.2% among 410,000 | AID 1159524; active = well fitted falling curve with a large enough effect; inconclusive = small, poorly fitted or top-dose-only effect; inactive = no such curve, though single readings can be large or run the other way; tested in HEK293T cells; further: on the % scale 0 is the no-effect control and ±100 the full control effect; nearly all actives have a fitted effect of over 45% in size; luciferase light after 4 h
# Marburg entry inh – blocks Marburg virus binding to or entry into cells | Marburg virus pseudotyped entry inhibition, cell reporter; control for the full effect not named in the record; about a third of the inactives were read at about 46 µM | Potency, µM (highest dose often 37.8 µM), for the others: at the top dose activity change, negative = inhibition, hits mostly inhibitors | hit rate 1.8% among 300,000; active = well fitted inhibition curve with a large enough effect; inconclusive = small, poorly fitted or top-dose-only effect, or effect the other way; inactive = flat fitted curve, though single readings scatter; tested in HEK293 cells; about a fifth of its hits are not listed in these tables; further: on the % scale 0 is the no-effect control and ±100 the full control effect; luciferase read-out
# SARS PLP yeast – inhibitors of SARS-CoV papain-like protease in yeast; Potency, µM (doses to about 32.9 µM), for the others: at the top dose activity, positive = growth rescue; S. cerevisiae expressing SARS-CoV PLpro, growth rescue; control for the full effect not named in the record; hit rate 0.19% among 330,000; active means well fitted rising curve with a large enough effect; inconclusive means small, poorly fitted or top-dose-only effect; inactive means no such curve, though single readings can be large or run the other way; further: 0% is about no effect; nearly all actives have a fitted effect of over 55% in size; growth read by luminescence after 48 h
# Cruzain noTriton – blocks cruzain activity in detergent-free assay; purified cruzain, Z-FR-AMC fluorescence, no detergent; hit rate 2.3% among 200,000; Potency, µM, inactives show max response, negative = inhibition, usual class: inhibitors; AID 1476; P25779;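 further: plate controls were enzyme without inhibitor for no effect and buffer without enzyme for full effect; nearly all actives have a fitted effect of over 40% in size; top concentration of the series not given in the record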
# Target sequence (P25779 123-467 limits assumed): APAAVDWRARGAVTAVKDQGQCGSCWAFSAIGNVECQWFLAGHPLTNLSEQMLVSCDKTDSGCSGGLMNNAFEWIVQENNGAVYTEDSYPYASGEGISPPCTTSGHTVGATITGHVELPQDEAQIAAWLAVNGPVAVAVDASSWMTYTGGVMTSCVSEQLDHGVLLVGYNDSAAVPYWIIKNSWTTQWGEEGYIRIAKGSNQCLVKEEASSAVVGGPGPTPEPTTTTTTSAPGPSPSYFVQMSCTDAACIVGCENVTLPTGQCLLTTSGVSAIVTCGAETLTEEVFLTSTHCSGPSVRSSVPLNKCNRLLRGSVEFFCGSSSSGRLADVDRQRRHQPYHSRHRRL
#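 Purified cruzain at 1.5 nM, pre-incubated 15 min with compound at room temperature in 100 mM sodium acetate pH 5.5, 5 mM DTT, 0.00005% Triton X-100. Reaction started with 2 uM Z-FR-AMC; AMC fluorescence increase over 60 s gives rate.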
# NS1 function inh – influenza NS1 inhibition; AID 2326; S. cerevisiae slowed by influenza A NS1, growth recovery by OD600; hit rate 0.4% among 270,000; Potency, µM (series often up to 46.1 µM), without a hit: at the highest dose activity, positive = more growth; active means well fitted rising curve with a large enough effect; inconclusive means small, poorly fitted or top-dose-only effect; inactive means no such curve, though single readings can be large or run the other way; further: nearly all actives have a fitted effect of over 50% in size
#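 OD600 was taken as the measure of yeast growth restored by compound in an NS1-expressing S. cerevisiae strain. Cells had been washed out of glucose medium and diluted 1:100 into galactose -URA medium, pH 6.0.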
# RE007 growth inh – less growth of the S. pombe RE007 Vpr strain; hit rate 0.21% among 360,000; S. pombe RE007 Vpr strain, BacTiter-Glo ATP luminescence, 24 h; control for the full effect not named in the record; Potency, µM (titrated, usually from 92.2 µM), for inactives: at the highest dose activity change, negative = less growth; active = well fitted falling curve with a large enough effect; inconclusive = small, poorly fitted or top-dose-only effect; inactive = no such curve, though single readings can be large or run the other way;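 further: on the % scale 0 is the no-effect control and ±100 the full control effect; nearly all actives have a fitted effect of over 50% in size; the assay follows cell death caused by Vpr and the record does not say whether a fall means rescue or toxicity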
#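 Fission yeast strain RE007, carrying one chromosomally integrated HIV-1 vpr copy, was seeded at OD 0.01 in PMG+AL medium with 23 nL pinned compound. After 24 h at 30 °C and 99% humidity, viability was read by BacTiter-Glo luminescence.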
# LASV entry inh – Lassa virus entry inhibition. Lassa virus pseudotype entry inhibition, cell reporter; control for the full effect not named in the record. hit rate 1.2% among 300,000. Potency, µM (doses to about 37.9 µM), without a hit: at the highest dose activity change, negative = inhibition, actives largely listed as inhibitors. AID 540256; active means well fitted inhibition curve with a large enough effect; inconclusive means small, poorly fitted or top-dose-only effect, or effect the other way; inactive means flat fitted curve, though single readings scatter; tested in HEK293 cells; further: on the % scale 0 is the no-effect control and ±100 the full control effect; nearly all actives have a fitted effect of over 50% in size; luciferase read-out
# Cruzain inh Det – cruzain (T. cruzi) inhibition with detergent; hit rate 0.43% among 200,000; P25779; Potency, µM, inactives show max response, negative = inhibition, actives largely listed as inhibitors; purified cruzain, Z-FR-AMC fluorescence, 0.01% Triton;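 further: plate controls were neutral wells for no effect and buffer without enzyme for full effect; nearly all actives have a fitted effect of over 40% in size; top concentration of the series not given in the record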
#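 Detergent-containing arm of a paired screen for aggregation-based inhibition: 0.01% Triton X-100 present. Cruzain at 1.5 nM cleaved 2 uM Z-FR-AMC at pH 5.5 with 5 mM DTT; AMC fluorescence gain over 60 s measured activity.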
# Numbers without * were called inactive; ? = inconclusive; . = no result given; & = joins results of further samples; [ ] = dose if it differs, or a comment. Unless noted, the call rests on the fitted dose curve; in most records, active means well fitted curve in the direction sought with a large enough effect; inconclusive means small, poorly fitted or top-dose-only effect, or another doubt; inactive means no such curve, though single readings can be large; an effect the other way counts as inactive or inconclusive. Potency means the concentration at half of the fitted maximal effect.
SMILES,StopGo reporter,Marburg entry inh,SARS PLP yeast,Cruzain noTriton,NS1 function inh,RE007 growth inh,LASV entry inh,Cruzain inh Det
COc1ccc(CCNS(=O)(=O)c2ccc3c(c2)CCN3C(=O)CCC(=O)O)cc1OC,-17%,1%,0%,-2%,1%,-8%,-1%,6.4%
OC(COCc1ccccc1)CN1CCN(c2ccccc2F)CC1 (centres undefined),2%,18%,?,3%,-10%,-4%[3.69 µM],-28%,2.3%
CN(Cc1ccccc1)S(=O)(=O)c1cccc2nsnc12,-13%,25%[46.1 µM],-2%,.,.,11%,7%,.
COC(=O)[C@]1(C)CCC[C@@]2(C)C3CC[C@@]4(C)C[C@]3(CC[C@H]12)C[C@H]4O (some centres undefined),?,.,-5%,.,-32%,?,.,.
CC1CC(C)(C)CC2(C1)NC(=O)N(CC(=O)NCc1ccccc1F)C2=O (centres undefined),4%,-27%,1%,.,.,-5%,?,.
C#CCN(C(=O)c1ccc(OC2CCN(Cc3ccccn3)CC2)cc1)C1CCCCC1,19%,?,1%,.,-1%,19%,2%[46.1 µM],.
O=C(NC1CCCCC1)NC1CC2CCC(C1)N2C(=O)NCc1ccccc1 (centres undefined),.,.,8%,0%,?,.,.,2.3%
COc1ccc(CNC(=O)c2ccc3c(c2)N(Cc2ccccc2C)C(=O)c2ccccc2S3=O)cc1 (centres undefined),-15%,.,.,4%,.,.,-22%[46.1 µM],0.5%
Cc1ccccc1C(=O)N1CCC(C(=O)Nc2nc3ccc(F)cc3s2)CC1,?,-4%,-4%,.,.,33%,-9%,.
COC(=O)c1ccc(C23CC4(C2)[C@H](CN(C)[C@@H]4c2ccccc2)C3c2ccc(Cl)nc2)cc1 (some centres undefined),-8%,.,-1%,-3%,3%,6%,.,-3.4%
CCC1CCCCN1C(=O)c1ccc2nc(Cc3ccc(OC)cc3)oc2c1 (centres undefined),55%[activator],.,0%,.,-3%,-13%,.,.
Cc1ccc(C(=O)N2N=C(c3ccc(Br)cc3)CC2c2ccccc2O)cc1 (centres undefined),23%,-29%,1%,.,-8%,1%,13µM*,.
CCC(C(=O)Nc1ccc([N+](=O)[O-])cn1)c1ccccc1 (centres undefined),-29%,-1%,-7%,.,-36%,2%,0%,.
Cc1ccc(-n2nc(-c3ccco3)cc2C(=O)O)c(C)c1,7%,13%,5%,.,?,-10%,2%,.
CN(C)c1ccc(NC(=O)c2cccc(N3C(=O)CCC3=O)c2)cc1,.,27%,5%,2%,-1%,-1%,-5%,-0.3%
CN(C)c1nc(Oc2ccc(OCCOc3ccccc3)nn2)nc(N(C)C)n1,-10%,.,0%,.,0%,3%,.,.
COc1ccc(CCNC(=O)c2ccc(SC)cc2OC)cc1,-15%,?,-2%,.,-9%,-19%,-24%,.
Cc1ccc(NC(=O)C(CC(C)C)NC(N)=O)cc1 (centres undefined),4%,-17%[46.1 µM],8%,0%,4%,4%,?,0.6%
N=C1c2ccccc2CN1c1ccc(S(=O)(=O)N2CCCCC2)cc1,-16%,-11%,0%,.,.,-8%,12%,.
COc1ccc(CN(C)CCc2ccccn2)cc1OC,-18%,-7%&-7%,-5%,17%,-2%,12%,16%,0.9%
O=C(NCc1ccc(OC(F)(F)F)cc1)C1CC(c2ccccc2[N+](=O)[O-])=NO1 (centres undefined),0%,5%,-11%,14%,-38%,10%,.,-7.7%
CC(=O)c1cccc(CN2CCN(Cc3ccc(C)cc3)C(CCO)C2)c1 (centres undefined),-10%,0%[46.1 µM],-1%,.,-1%,12%,-8%[46.1 µM],.
CN1CC(c2ccccc2Cl)C2(COc3ccccc3C2=O)C12C(=O)Nc1ccccc12 (centres undefined),18%,?,-25%,2%,-49%,-7%,-1%,-3.4%
CCN(CC(=O)Nc1ccc(OC)c(Cl)c1)CC(=O)NC(C)C,-4%,-4%[46.1 µM],4%,.,.,-29%,-1%,.
CC(C)(C)c1ccc2c(c1)N(CC(=O)O)C(=O)CO2,-2%,6%,1%,-5%,-2%,4%,-4%,5.4%
CCOc1cc(NC(=O)C2CC2)c(OCC)cc1NC(=O)c1ccccc1OCC,-29%,10µM*,-1%,.,-1%,30%,?,.
NC(=N\N=Cc1ccccc1)/C(N)=N/N=Cc1ccccc1,18%,-13%,.,.,.,-8%,1%,.
O=c1[nH]c(/C=C\c2ccc(O)c(O)c2)nc(O)c1[N+](=O)[O-],-16%,-1%[46.1 µM],7%,.,11%,11%,?,.
CC(C)Nc1nc(NC(C)(C)C)nc(Oc2ccc(=O)n(-c3ccccc3)n2)n1,-23%,-6%,0%,9%,?,-6%,-25%,1.0%
CCNC(=S)N(CCc1ccc(OC)c(OC)c1)Cc1cc2cc(OC)ccc2[nH]c1=O,-9%,-3%[46.1 µM],0%,.,1%,-2%,-5%[46.1 µM],.
COc1ccc(-c2nn(C)c(=O)[nH]2)cc1,-2%,.,1%,.,5%,2%,.,.
COc1ccc(CN2CCNC(=O)C2CC(=O)N(C)CC2CCOCC2)cc1OC (centres undefined),-1%,.,-6%,.,-6%,10%,.,.
Cc1ccc2c(c1)N(CCC(=O)NC1CC1)C(=O)C(C)O2 (centres undefined),20%,8%,-4%,2%,2%,13%,-2%,7.6%
Cc1ccc(NC(=O)COc2ncnc3sccc23)cc1S(=O)(=O)N(C)C,32%[activator],.,1%,.,3%,2%,.,.
O=C(c1ccc(F)cc1)n1c(=S)nc2ccccn21,82%[activator],.,-1%,.,-1%,-14%,.,.
CN1C(=O)N(S(=O)(=O)c2ccc(F)c(F)c2F)C(=O)C1(C)C,-23%,7%,2%,1%,-7%,21%,11%,6.0%

# An excerpt from above, limited to Marburg entry inh:
mol,Marburg entry inh
O=c1[nH]c(/C=C\c2ccc(O)c(O)c2)nc(O)c1[N+](=O)[O-],-1%[46.1 µM]
CC(C)Nc1nc(NC(C)(C)C)nc(Oc2ccc(=O)n(-c3ccccc3)n2)n1,-6%

# Other results follow:
SMILES,StopGo reporter,Marburg entry inh,SARS PLP yeast,Cruzain noTriton,NS1 function inh,RE007 growth inh,LASV entry inh,Cruzain inh Det
O=C(NCc1cccc(Cl)c1)c1ccc(N2CC3CC(C2)c2cccc(=O)n2C3)c(NC(=O)c2cccnc2)c1 (centres undefined),-2%,.,13%,.,-10%,-6%,.,.
Cc1cccn2c(=O)c(C(=O)NCCc3ccccc3)cnc12,-20%,.,.,-9%,.,.,?,-3.3%
Cc1onc(C(N)=O)c1C(=O)Nc1ncc(C(F)(F)F)cc1Cl,-15%,8%[46.1 µM],-1%,.,3%,14%,3%,.
CCCCC(c1nnnn1Cc1ccco1)N1CCN(c2nc3ccccc3s2)CC1 (centres undefined),0%,?,-9%,-13%,-128%,4%,?,-5.3%
FC(F)(F)c1ccc(CSc2ccccn2)cc1,19%,19%[46.1 µM],-1%,.,-1%,-7%,6%[46.1 µM],.
CN(CC(=O)NC1CCCCCCC1)S(=O)(=O)c1cnc[nH]1,4%,?,3%,.,.,2%,-11%[46.1 µM],.
COc1ccc(C(=O)Nc2nc3ccccc3[nH]2)cc1S(=O)(=O)N1CCCC1,5%,-14%,-6%,-1%,4%,-14%,10%,-5.3%
CCN1CCN(S(=O)(=O)c2ccc(Cl)c(C(=O)Nc3ccccc3N3CCOCC3)c2)CC1,-3%,5%,-6%,.,.,-1%,-12%,.
NS(=O)(=O)c1ccc(NC(=S)NCc2ccc(F)cc2)cc1,12%,2%[46.1 µM],-1%,.,5%,16%,5%[46.1 µM],.
Cc1ccc(N(C(=O)c2ccc(S(=O)(=O)N3CCCC3)cc2)C2C=CS(=O)(=O)C2)cc1 (centres undefined),-16%,6%,-2%,.,-6%,-16%,2%,.
Cc1ccc(C(C(=O)NC2CCCC2)N(C(=O)c2csnn2)C2CC2)cc1 (centres undefined),14%,?,1%,.,10%,2%,-22%[46.1 µM],.
Cc1ccccc1N1CC(=O)Nc2c(oc3nc(-c4ccccc4)cc(C)c23)C1=O,?,.,-1%,.,-1%,3%,.,.
CCc1ccc(NC(=O)CC2C(=O)N(c3ccc(F)cc3)C(=O)N2Cc2ccc(F)cc2)cc1 (centres undefined),-10%,.,.,-22%,.,.,0%[46.1 µM],-4.0%
Cc1ccc(OCC(=O)N(C)CC(=O)Nc2ccc(F)cc2)c([N+](=O)[O-])n1,-1%,-1%,4%,-2%,15%,-23%,13%[46.1 µM],-0.4%
COc1ccc(N2CCN(CCCNC(=O)C3CCN(S(=O)(=O)N4CCOCC4)CC3)CC2)cc1,-16%,?,0%,.,.,-21%,12%[46.1 µM],.
O=C(OCc1ccccc1)Oc1cncc(C(=O)O)c1,20%,5%,.,-7%,-1%,-7%,13%,5.3%
Nc1nonc1/C(=N/O)N1CCN(CCO)CC1,-14%,4%,-1%,4%,-4%,5%,-3%,5.2%
CSc1nsc(SCCN2C(=O)c3ccccc3C2=O)n1,-24%,14%[46.1 µM],-4%,4%,-5%,-23%,12%,-1.6%
CCc1nc2sccc2c(=O)n1N,1%,-8%[46.1 µM],0%,.,.,6%,5%,.
COc1cccc(NC(=O)c2sc(Cl)nc2C)c1,27%,3%[46.1 µM],-1%,.,-15%,-3%,23%[46.1 µM],.
O=C(COc1ccc(Cl)cc1)OCc1cc(=O)n2nc(-c3cccs3)sc2n1,8%,.,.,?,.,.,?,-5.9%
O=C(Nc1ccc(Cl)cc1)N1CCN(c2ccccc2)CC1,4%,19%,-25%,-4%,-15%,3%,7%,-2.4%
O=C(CCCCC(=O)NC1CCCC1)NC1CCCC1,0%,4%,1%,1%,5%,-3%,7%,-2.6%
CCC(Sc1nc(N)c(NC(=O)c2ccc(OC)c(OC)c2)c(=O)[nH]1)C(=O)OC (centres undefined),0%,.,-10%,-7%,-95%,-4%,.,-0.7%
O=C1CN(C(=O)/C=C/c2ccc(Cl)cc2)c2ccccc2N1,-11%,?,-1%,.,.,0%,?,.

# Screening results as filed in PubChem.
